# From PubChem BioAssay
# ALR H2O2 inh – human ALR oxidase inhibition via reduced H2O2 | purified ALR, DTT oxidation, H2O2 HRP-luminol luminescence | inhibition, % (concentration not given with the values) | 290,000 compounds, 3.8% hits | AID 485317;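 active = mean and each replicate at 75% or more; inconclusive = only one of the two met; inactive = neither met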;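 also: stock transfer was 7.5 nL into about 7.5 µL; 0% = neutral wells and 100% = wells with inactivated enzyme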
# Target sequence (P55789 whole entry, looked up): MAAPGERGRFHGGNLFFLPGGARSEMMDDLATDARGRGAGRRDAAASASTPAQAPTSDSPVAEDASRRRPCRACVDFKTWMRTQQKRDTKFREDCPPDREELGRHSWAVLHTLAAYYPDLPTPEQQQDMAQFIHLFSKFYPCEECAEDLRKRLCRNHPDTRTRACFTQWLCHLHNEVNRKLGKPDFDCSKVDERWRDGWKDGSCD
# LANA-H2A inh – blocks KSHV LANA binding to histone H2A/H2B | inhibition, % (concentration not given with the values) | Q9QR71 | 320,000 compounds, 0.6% hits | cell-free LANA-H2A/H2B peptide, fluorescence polarization; in the data active = inhibition mostly above about 10%, no sharp cut-off; inactive = mostly below about 6.7%;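 also: stock transfer was 7.5 nL into about 10 µL; 0% = median of vehicle wells and 100% = median of positive control wells; one replicate is shown; the record names a cut of 25% in any replicate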
# T cruzi repl – T. cruzi replication inhibition; T. cruzi beta-gal in NIH3T3, luminescence, 90 h; inhibition, % (test concentration not listed); 300,000 compounds, 1.4% hits;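 active = mean inhibition across valid replicates above about 55%, limit read from the data; inconclusive = mean below that limit but half or more replicates reach it; inactive = mean below it, under half of replicates reach it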;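 also: signal also drops with host cell toxicity which is not excluded here; 0% = plate median of DMSO wells and 100% = zero luminescence signal; higher percent means less beta-gal luminescence so fewer parasites; stock transfer was 50 nL into about 50 µL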
# B2AR ag – activates human beta-2 adrenergic receptor causing internalization; AID 504454; P07550; response, % (test concentration not listed); 340,000 compounds, 0.43% hits; Am2.2-beta2AR cells, FAP receptor internalization, flow cytometry; reference of the scale not given here;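 active = response above a set limit, near 3 SD of response in nonfluorescent compounds, cut at about 42% in these data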;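 also: stock transfer was 100 nL into about 11 µL; a reference agonist was the positive control; negative values mostly stem from fluorescent compounds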
# Target sequence (P07550 whole entry, looked up): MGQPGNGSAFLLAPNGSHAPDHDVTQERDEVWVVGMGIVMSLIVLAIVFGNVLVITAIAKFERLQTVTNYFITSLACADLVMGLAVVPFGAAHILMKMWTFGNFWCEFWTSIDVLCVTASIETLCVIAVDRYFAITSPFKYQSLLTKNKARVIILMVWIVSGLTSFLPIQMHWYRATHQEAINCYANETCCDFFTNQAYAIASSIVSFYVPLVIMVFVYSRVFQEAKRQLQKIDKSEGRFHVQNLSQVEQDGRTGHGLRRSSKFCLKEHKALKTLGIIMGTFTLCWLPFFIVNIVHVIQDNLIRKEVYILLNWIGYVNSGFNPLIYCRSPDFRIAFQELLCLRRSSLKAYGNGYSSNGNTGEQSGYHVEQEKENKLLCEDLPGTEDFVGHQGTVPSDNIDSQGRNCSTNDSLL
# Calb FLC – C. albicans growth modulation with fluconazole; C. albicans CaCi-2 (fluconazole-resistant clinical isolate) + fluconazole, Alamar Blue growth, 48 h; growth inhibition, % (concentration not given with the values); 300,000 compounds, 0.57% hits; AID 1979;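 active = most replicates above 75%; inconclusive = exactly half above 75%; inactive = most below 75%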;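 also: all wells also contain fluconazole at 8 µg/ml as a sub-toxic cotreatment; 0% = median of DMSO wells and 100% = median of geldanamycin control wells; wells of about 8 µL received 7.5 nL stock; the first replicate is given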
# Bfl-1 A1 inh – inhibitors of the anti-apoptotic protein A1, read as caspase activation | MEF A1-2A-BIM cells, Caspase-Glo 3/7 luminescence, 3 h; percent of clofoctol response, vehicle zero | 330,000 compounds, 0.066% hits | caspase activation, % (test concentration not listed) | AID 2462;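 active = over half of replicate activation scores above 10%, or exactly half above 10 with the replicate mean above 10; inconclusive = replicate mean below 10 yet half the replicates above 10; inactive = over half of replicates below 10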;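 also: wells of about 30 µL received 50 nL stock; many hits fall short of the cut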
# rRNA inh HTS – inhibitors of bacterial rRNA selective over humanized ribosomes; E. coli WT GFP vs humanized-ribosome RFP mutants, fluorescence, 24 h; stronger effect = lower value; DMSO median 0, no signal -100; AID 720706; 350,000 compounds, 1.6% hits; GFP signal change (wild-type ribosome), % (test concentration not listed);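 active = significant combined selectivity score with lowered wild-type GFP, culture density cut under 30%, mutant RFP and density less affected; inactive = any of these conditions unmet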; also: one replicate is shown; some compounds called inactive have numbers as strong as hits
# Beta apoptosis – beta cell apoptosis inhibition; INS-1E cytokine-induced death, ATP luminescence, 48 h; percent of positive-control rescue, neutral wells zero; protection from apoptosis, % (no concentration beside the values); AID 435005; 300,000 compounds, 0.8% hits;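 active = all replicates at 75% or more, or half of them and the mean; inconclusive = half reach 75% but not the mean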;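 also: 0% = cytokine-treated negative control wells and 100% = positive control rescue; higher means more ATP so stronger rescue from cytokine killing; wells of about 40 µL received 100 nL stock; the first replicate is given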
# rRNA inh HTS OD600 – further read-out of rRNA inh HTS, marked with its call; OD600 change, %; measured here: OD600 growth;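 optical density of the mix in the first replicate; 0 = DMSO median and -100 = no signal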
# rRNA inh HTS RFP – further read-out of rRNA inh HTS, marked with its call; RFP signal change, %; measured here: RFP humanized mutant strains;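 first replicate; 0 = DMSO median and -100 = no signal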
# * hit, by the source's call; ? = inconclusive; / = no result given. Only part of the results is shown; the hit share may differ from the screen's.
SMILES,ALR H2O2 inh,LANA-H2A inh,T cruzi repl,B2AR ag,Calb FLC,Bfl-1 A1 inh,rRNA inh HTS,rRNA inh HTS OD600,rRNA inh HTS RFP,Beta apoptosis
CC(C)n1c(O)c(N=NC(=O)C2COc3ccccc3O2)c2ccccc21 (configuration not stated),-34.5,0.1,16.6,-3.4,34.1,0.4,-5.5,-4.9,1.9,1.6
Cc1c(C)[n+](=O)c2c(n1[O-])CCCCC2,-8.4,1.8,-5.3,1.2,-2.7,0.8,/,/,/,1.1
COc1ccccc1-n1cnc2cc(NC(C)=O)ccc21,-8.5,1.3,-12.0,8.7,0.6,-0.2,/,/,/,-0.8
Cc1ccc(-n2c(C)nnc2SC(C)C(=O)N2CCCC2)cc1 (configuration not stated),-2.3,0.8,-4.0,7.5,0.3,0.1,3.5,5.9,-2.6,-0.6
COC(=O)C1=NN(c2ccccc2OC)C2C(=O)N(c3ccccc3OC)C(=O)C12 (configuration not stated),-10.6,3.0,-10.2,-1.9,22.0,2.3,4.4,8.7,3.4,-14.1
COc1ccccc1CNC(=O)COC(=O)c1cc2ccccc2o1,-2.2,1.2,/,-28.8,/,-0.3,2.6,6.5,3.8,6.0
CC(C)CC(NC(=O)C(NC(=O)C1CCC(=O)N1C(=O)OCc1ccccc1)C(C)C)C(=O)N1CCCC1C(N)=O (configuration not stated),-0.1,-3.8,-19.8,-2.8,0.6,0.5,1.2,-0.1,-1.8,-3.5
COc1cc(NC(=O)CCc2nnc3ccc(N4CCN(C)CC4)nn23)cc(OC)c1,-2.6,-2.9,-11.9,1.6,/,0.5,0.1,9.8,-0.4,-1.6
COc1ccc(C(=O)C[n+]2cccc(C(N)=O)c2)cc1,21.3,-5.3,-12.4,-6.9,-0.9,1.9,11.1,13.4,0.1,-1.9
Clc1ccc(Nc2nc3ccccc3n3nnnc23)cc1,-8.0,10.8,13.2,-5.0,2.1,-0.3,/,/,/,13.5
COc1cc(S(=O)(=O)n2cnc(C)c2)ccc1Cl,-14.5,7.4,-4.0,2.5,-4.2,0.6,31.9,6.1,-2.0,-0.5
O=C(Nc1cc(Cl)ccc1Oc1ccccc1)c1ccccc1F,0.1,1.1,15.1,26.0,-42.7,-0.5,/,/,/,-0.4
COc1cccc2c1OC1(CCN(C(C)C)CC1)N1N=C(c3cccnc3)CC21 (configuration not stated),/,2.5,-3.1,-1.2,-8.2,-0.4,-1.5,5.2,4.3,-0.9
COc1ccc(NC2C=CS(=O)(=O)C2)cc1 (configuration not stated),10.3,0.8,12.0,8.0,-13.0,0.1,/,/,/,4.0
CC(=O)N/C(=C\c1ccc(F)cc1)C(=O)OCc1ccccc1,-6.7,1.2,-1.5,-11.0,-4.9,0.0,-2.1,3.9,-5.6,0.0
Cc1ccc(S(=O)(=O)NCc2ccc(C(=O)NC3CCC(O)CC3)cc2)cc1C (configuration not stated),-1.5,2.9,/,0.9,/,-0.6,11.2,14.6,1.3,-1.1
Cc1ccc(OCC(=O)N2CCN(S(=O)(=O)c3ccccc3[N+](=O)[O-])CC2)cc1,-1.5,-1.1,23.2,-4.5,46.4,0.4,-14.7,-22.4,-3.4,/
Oc1[nH]c2ccccc2c1/C=N/N1CCCCC1,5.6,1.2,-12.2,-4.3,?,0.3,/,/,/,-6.3
CCCC(=O)Nc1nnc(SCC(=O)Nc2ccc3c(c2)OCCO3)s1,-6.2,-0.1,5.4,-7.4,-1.5,-0.3,5.8,12.2,-1.9,/
Cc1ccccc1NC(=O)C1c2ccccc2Oc2ccccc21,12.2,-7.3,-5.5,11.4,-17.1,1.9,18.2,19.1,3.7,-2.9
Cc1cc(NC(=O)CCC(=O)N(CCc2ccccc2)C(C(=O)NC2CCCC2)c2ccco2)no1 (configuration not stated),1.1,-3.0,-6.0,-3.2,-25.5,0.0,/,/,/,-2.6
CNC(=O)c1[nH]cnc1C(=O)Nc1ccc(F)cc1,-23.4,3.1,-4.0,2.8,0.1,-1.8,6.3,25.1,9.4,-3.0
CCn1c(=O)c(-c2nc3ccccc3[nH]2)c(O)c2ccccc21,4.0,-3.2,-6.5,/,2.7,-0.5,21.6,23.2,0.9,2.8
C/C=C/CSc1nc2c(c(=O)[nH]c(=O)n2C)n1CCC,-0.8,0.8,/,/,/,0.4,/,/,/,-2.6
CCc1ccc(NC(=O)CSC2=C(C#N)C(c3ccc4c(c3)OCO4)CC(=O)N2)cc1 (configuration not stated),-8.1,-3.7,18.3,-1.4,-6.1,0.3,/,/,/,/

# Carrying on.
SMILES,ALR H2O2 inh,LANA-H2A inh,T cruzi repl,B2AR ag,Calb FLC,Bfl-1 A1 inh,rRNA inh HTS,rRNA inh HTS OD600,rRNA inh HTS RFP,Beta apoptosis
CN(C)S(=O)(=O)N(CC(=O)NCCSCc1ccccc1)c1ccccc1,5.5,1.1,-17.8,-6.5,-7.8,0.2,-11.5,-24.3,-5.2,-0.8
NS(=O)(=O)c1ccc(CCNC(=O)CCCCCn2c(=S)[nH]c3ccc(Br)cc3c2=O)cc1,1.2,-2.3,-1.5,-0.5,11.5,0.0,8.0,13.1,12.0,3.2
CCOC(=O)NC(=O)/C(C#N)=C\Nc1ccc(Cl)cc1Cl,-13.3,-5.2,-2.2,-7.7,-4.8,-0.1,35.7,21.3,1.1,2.6
CCc1ccccc1NC(=O)c1cccc(NC(=O)/C=C/c2ccco2)c1,-2.6,-2.3,-81.2,5.9,-2.5,0.0,/,/,/,0.5
CC(=O)Nc1sc2c(c1C#N)CCN(Cc1ccccc1)C2,-6.7,6.1,-2.8,-5.5,-0.2,0.6,3.1,7.6,5.9,-2.7
O=C(O)/C(=C1\OC(=O)c2ccccc21)c1ccccc1,-2.4,1.5,2.1,-0.3,-6.7,0.3,/,/,/,-6.1
CCn1c(=O)c(=O)[nH]c2c(=O)oc3ccc(S(=O)(=O)Nc4ccccc4)cc3c21,0.7,4.9,-6.0,3.3,2.1,0.1,8.6,16.9,-0.3,-3.0
COCCCn1c(SCC(=O)O)nc2cc(OC)c(OC)cc2c1=N,-10.9,-3.7,-19.2,-3.9,4.2,0.8,1.3,8.2,-0.4,/
CC(C)(O)/C=C1/Oc2ccccc2C1N1CCCCC1 (configuration not stated),2.1,-0.5,5.4,0.5,-13.6,-0.4,/,/,/,-1.6
CCC(=O)N(Cc1ccc(S(N)(=O)=O)cc1)C1CC(=O)N(c2ccccc2)C1=O (configuration not stated),2.2,-1.4,-7.1,-0.3,3.9,0.5,9.5,9.1,0.0,-0.7
CCOc1cc(S(=O)(=O)NC2CC2)c(OCC)cc1-n1cnnn1,-2.3,1.3,1.0,-4.2,-21.0,1.0,/,/,/,2.3
COC(=O)c1ccc2c(=O)n(Cc3ccc(C(=O)NC(C)C)cc3)c(=S)[nH]c2c1,37.8,-3.5,-1.8,-0.7,-0.3,-2.2,6.8,12.2,1.2,-0.8
Cc1cccc(C)c1N(CC(=O)NC1CCCCC1)C(=O)c1csnn1,-3.1,2.2,2.1,-0.8,24.4,-1.5,1.0,-0.5,-0.3,0.9
N=c1sccn1CC(=O)Nc1cccc2ccccc12,-31.3,-3.1,8.2,0.2,?,2.7,/,/,/,-2.6
CCc1noc(C)c1C(=O)OCC(=O)Nc1ccc(F)cc1Cl,0.4,-2.9,/,0.9,/,0.5,2.1,11.9,0.2,0.1
COc1ccc(F)cc1C(=O)C1CCCN(C(=O)c2ccccc2N(C)C)C1 (configuration not stated),-2.2,0.4,21.8,-5.4,14.2,0.3,-4.9,-5.0,1.8,-1.3
CC1CCC(C(=O)NNC(=O)c2cc(-c3ccco3)[nH]n2)CC1 (configuration not stated),12.4,0.5,-18.0,4.4,-2.0,0.0,9.1,14.0,7.9,-5.3
CCCCN(C)C(=O)c1c[nH]c2ccc(S(=O)(=O)N3CCOCC3)cc2c1=O,/,/,-2.2,-7.4,-12.7,/,11.4,9.5,1.5,/
COc1ccccc1N1CCN(C(=O)CSc2nc(-c3ccco3)cc(C(F)(F)F)n2)CC1,-3.1,2.0,25.9,-4.1,-22.8,2.0,-19.5,-18.1,15.7,2.3
COc1cc(C2=NOC(C(=O)N3CCCc4ccccc43)C2)cc(OC)c1OC (configuration not stated),9.1,-0.2,12.8,5.3,7.1,1.1,/,/,/,-5.3
COc1cc(NC(=O)CSc2nc3ccccc3n2-c2ccccc2)c(C)cc1[N+](=O)[O-],-7.0,-4.4,17.8,14.9,3.2,-0.7,/,/,/,1.3
COc1ccc(CCC(=O)OCC(=O)N(CC(C)C)c2c(N)n(Cc3ccccc3)c(=O)[nH]c2=O)cc1,-8.2,-3.5,-1.9,0.4,-2.9,0.2,3.9,9.4,-1.7,0.7
CCn1c(SC(C)C(=O)NC2CCCc3ccccc32)nnc1-c1cccs1 (configuration not stated),-11.5,-4.3,-18.1,-13.0,8.4,0.6,/,/,/,-5.1
CCN(CC(=O)Nc1ccc(NC(C)=O)cc1)C(=O)c1ccc2c(c1)OCCO2,/,3.9,/,4.0,/,-2.0,3.7,5.3,-3.2,4.7
Cc1cc(C)c(C#N)c(N2CCCC2)n1,11.5,5.2,-1.1,7.3,2.6,-0.8,13.2,10.8,-3.3,-5.7

# Remaining list, next part:
SMILES,ALR H2O2 inh,LANA-H2A inh,T cruzi repl,B2AR ag,Calb FLC,Bfl-1 A1 inh,rRNA inh HTS,rRNA inh HTS OD600,rRNA inh HTS RFP,Beta apoptosis
O=S(=O)(Cc1ccccc1)N1CCNCC1,-4.8,2.8,-2.8,-1.2,6.4,0.4,11.5,3.6,-1.2,-2.4
CCOC(=O)N1CCN(c2ccc(Cl)cc2)CC1,40.6,6.4,4.5,4.4,0.4,-0.8,1.3,7.1,3.3,3.9
O=C(CCCN1C(=O)c2ccccc2C1=O)NCc1ccc(F)cc1,-3.5,1.5,-25.9,-4.5,3.4,-0.1,0.4,1.9,-1.3,-2.1
Cc1ccc(Oc2nc3ccccn3c(=O)c2/C=C(\C#N)C(=O)NC2CCS(=O)(=O)C2)cc1 (configuration not stated),52.1,2.0,-10.4,-7.4,1.4,0.5,11.6,3.0,0.5,-9.5
CN(CC(=O)Nc1c(Cl)cccc1Cl)C(=O)C1CCN(C(=O)Nc2ccccc2)CC1,-11.8,3.4,-1.5,-7.5,-2.1,0.2,17.3,8.7,-0.1,1.9
CC(C)(C)c1nnc2sc(SCC(=O)c3cccs3)nn2c1=O,98.3*,2.7,-13.3,3.0,-6.8,1.2,/,/,/,-10.1
O=C(NNC(=S)Nc1ccc(F)c(Cl)c1)C1CC1,27.1,3.7,0.0,0.9,0.4,0.2,-12.8,-11.7,0.2,-3.6
CC(=O)Nc1cccc(NC(=O)CSc2nc3c(c(=O)n(C)c(=O)n3C)n2C)c1,/,-1.1,-15.9,-1.9,-5.3,-0.2,1.3,5.6,-3.5,-3.3

# Quoted from the listing.
# O=C(CCCN1C(=O)c2ccccc2C1=O)NCc1ccc(F)cc1 in rRNA inh HTS OD600: 1.9
# O=S(=O)(Cc1ccccc1)N1CCNCC1 in Beta apoptosis: -2.4
